Compound activity as filed in PubChem BioAssay.
D2 PAM = Beta-Arrestin HTS for Positive Allosteric Modulators of the Human D2 Dopamine Receptor: Potentiators | D(2) dopamine receptor (Homo sapiens), P14416 | DiscoveRx D2 beta-arrestin cells, luminescence, 90 min; 100% = 57 uM dopamine signal | potentiation, % (no concentration beside the values) | 0.23% of 360,000 active | AID 624464, 2012; active = potentiation of 50% or more; inconclusive = 30% to 50%; inactive = 30% or less;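 further: compound concentration not given in the record; tested on top of an EC20 dose of dopamine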
Target sequence (P14416 whole entry, looked up): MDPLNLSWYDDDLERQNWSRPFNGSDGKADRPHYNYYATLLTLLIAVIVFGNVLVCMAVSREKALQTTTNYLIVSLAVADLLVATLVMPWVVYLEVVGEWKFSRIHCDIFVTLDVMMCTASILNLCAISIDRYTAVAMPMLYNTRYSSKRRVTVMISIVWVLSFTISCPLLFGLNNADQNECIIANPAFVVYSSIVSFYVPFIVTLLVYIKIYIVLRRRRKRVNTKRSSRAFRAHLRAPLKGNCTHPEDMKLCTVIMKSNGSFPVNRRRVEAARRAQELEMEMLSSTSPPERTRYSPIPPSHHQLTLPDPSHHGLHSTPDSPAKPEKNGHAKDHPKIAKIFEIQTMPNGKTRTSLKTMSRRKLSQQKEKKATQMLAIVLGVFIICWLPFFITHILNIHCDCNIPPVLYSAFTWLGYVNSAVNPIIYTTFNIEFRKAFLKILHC
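PathHunter beta-arrestin assay in DiscoveRx D2 cells. Compounds were added with an EC20 of dopamine (50 nM final) for 90 min at 37 deg C. Luminescence was read 1 h after detection reagent, with 57 uM dopamine as the EC100 control.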
TRPML1 ag = qHTS for Agonists of the Human Mucolipin Transient Receptor Potential 1 (TRPML1). activation, % (test concentration not listed). TRPML1-expressing cells, Ca2+ dye fluorescence, FDSS; host cell line not named in the record; reference of the full effect not given here. 0.12% of 410,000 active; in the data active = activation above about 50%; inconclusive = about 30% to 50%; inactive = below about 30%; further: 0% is about no effect; the text of the record puts the active cut at 80%
Target sequence (Q9GZU1 whole entry, looked up): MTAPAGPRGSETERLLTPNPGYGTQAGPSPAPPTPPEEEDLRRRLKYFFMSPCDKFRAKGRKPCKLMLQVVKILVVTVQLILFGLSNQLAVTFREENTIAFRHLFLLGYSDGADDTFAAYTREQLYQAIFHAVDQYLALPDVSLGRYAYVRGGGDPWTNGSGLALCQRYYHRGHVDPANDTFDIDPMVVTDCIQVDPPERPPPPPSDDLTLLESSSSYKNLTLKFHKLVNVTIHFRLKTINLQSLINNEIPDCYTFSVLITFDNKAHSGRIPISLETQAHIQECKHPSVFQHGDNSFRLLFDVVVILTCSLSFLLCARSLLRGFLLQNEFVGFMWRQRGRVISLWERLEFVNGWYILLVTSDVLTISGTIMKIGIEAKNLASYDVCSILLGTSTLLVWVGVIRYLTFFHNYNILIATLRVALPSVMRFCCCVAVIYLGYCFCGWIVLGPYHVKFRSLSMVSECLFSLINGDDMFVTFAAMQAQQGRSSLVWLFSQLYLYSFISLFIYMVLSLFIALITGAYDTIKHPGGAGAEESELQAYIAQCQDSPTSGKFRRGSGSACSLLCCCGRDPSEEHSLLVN
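Cells: TRPML1-DL, 1X Tet inducer, ~16 h at 37 degrees C/5% CO2. Dye: ABD Ca8 no-wash + quencher, 45-90 min RT. Read: 10 s baseline, compound add, 110 s agonist phase; 54-4 EC80 (4uM final), 110 s antagonist phase.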
TRPML1 blocker = qHTS for Inhibitors of the Human Mucolipin Transient Receptor Potential 1 (TRPML1). Mucolipin-1 (Homo sapiens), Q9GZU1. TRPML1-inducible cells, Ca2+ dye fluorescence, FDSS; active compounds read low; inhibition of EC80 agonist-evoked calcium signal. activity change, negative = inhibition, % (test concentration not listed). 0.02% of 390,000 active. AID 624415, 2012; in the data active means activity change below about -50%; inconclusive means about -30% to -50%; inactive means above about -30%;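 further: stimulus is agonist 54-4 at its EC80 concentration; on the % scale 0 is the no-effect control and ±100 the full control effect; compound concentration not given in the record; the text of the record puts the active cut at -80%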
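Calcium fluorescence in TRPML1-DL cells induced overnight with Tet: a 110 s read after compound pin addition, then a 110 s antagonist read after challenge with 54-4 at 4 uM final (EC80).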
Six1-Eya2 inh = qHTS Assay for Inhibitors of the Six1/Eya2 Interaction | Homeobox protein SIX1 (Homo sapiens) + Protein phosphatase EYA2 (Homo sapiens), … | AlphaScreen GST-Six1/His-Eya2 binding, biochemical; active compounds read low; control for the full effect not named in the record | activity change, % (no concentration beside the values) | 0.56% of 360,000 active; in the data active = activity change below about -65%; inconclusive = about -30% to -65%; inactive = above about -30%; further: on the % scale 0 is the no-effect control and ±100 the full control effect
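GST-Six1 + His-Eya2 (5X stock: 250/500 nM); Tris pH 8.0, 300 mM NaCl, 0.05% BSA, 0.02% Tween 20; GSH donor/Ni acceptor beads; 1 h 37 °C dark; AlphaScreen readout.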
CtBP-E1A inh = qHTS Assay for Inhibitors of the CtBP/E1A Interaction; AID 651724, 2012; AlphaScreen GST-E1A/His-CtBP binding, 1536-well; active compounds read low; control for the full effect not named in the record; 0.49% of 340,000 active; activity change, % (concentration not given with the values); in the data active means activity change below about -65%; inconclusive means about -30% to -65%; inactive means above about -30%; further: on the % scale 0 is the no-effect control and ±100 the full control effect
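Homogeneous bead-based format: GST-tagged E1A captured on glutathione donor beads, His-tagged CtBP on nickel acceptor beads; compounds precede bead addition by 2 h at 37 °C.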
TRPV1 potentiator = HTS Assay for Compounds that Act as Potentiators of the Vanilloid Receptor 1 | Transient receptor potential cation channel subfamily V member 1 (Homo sapiens), Q8NER1 | TRPV1-expressing cells, Fluo-8 calcium influx, capsaicin EC20 potentiation; host cell line not named in the record; control for the full effect not named in the record | potentiation, % at 8.33 µM | 0.02% of 320,000 active; active means potentiation above 80%; inconclusive means 30% to 80%; inactive means below 30%; further: 0% is about no effect
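Cells expressing TRPV1 were dye-loaded with Fluo-8 and read kinetically: 10 s baseline, 3 min after compound (agonist portion), then 2 min after EC20 capsaicin (allosteric enhancer portion). Calcium-bound dye fluorescence at 480/520 nm.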
Numbers without * were called inactive; ? = inconclusive; . = no result given; & = joins results of further samples.

compound,D2 PAM,TRPML1 ag,TRPML1 blocker,Six1-Eya2 inh,CtBP-E1A inh,TRPV1 potentiator
COc1ccc(NC(=O)CN(C)CC(=O)Nc2ccc(Cl)cc2F)cc1,-12,-0.3,16,2,-6,2
COc1cccc(C2c3c(oc4ccccc4c3=O)C(=O)N2CCCN(C)C)c1OC (centres undefined),-6,0.0,14,5,4,18
CCOc1ccc(CN2CCNC(=O)C2CC(=O)NCC2CCOCC2)cc1 (centres undefined),9,-0.3,16,0,11,13
COc1ccccc1C(=O)Nc1ccc2c(c1)n(C)c(=O)n2C,-3,0.5,11,-24,?,-1
COc1ccc(OC)c(S(=O)(=O)Nc2c(NC3CCCCC3)c3ccccc3oc2=O)c1,-5,-0.5,30,8,13,-21
O=C(C1CC1)N1CCc2cc(Br)cc(S(=O)(=O)N3CCCCCC3)c21,-6,-0.4,6,-7,-7,7
COc1ccc(/C=C/C(=O)Nc2ccc3c(c2)OCCO3)cc1OC,-1,-0.8,27,-9,-3,17
CCOC(=O)Cc1[nH]nc2c1C(Cc1ccccc1)C(C#N)=C(N)O2 (centres undefined),-2,-0.1,-26,-1,1,21
O=C(Nc1ccc(Cl)cc1F)C1CC1c1ccccc1 (centres undefined),-13,1.1,-3,5,4,-5
O=C(NCCCN1CCOCC1)c1ccc(/C=C2\Oc3ccccc3N(Cc3ccccc3F)C2=O)cc1,2,0.3,3,0,.,7
Cc1ccc(C(=O)c2cn[nH]c2-c2cc(Cl)ccc2O)cc1,-14,0.7,-2,-12,-8,-28
CN1CCN(NC(=O)CN2C(=O)/C(=C/c3ccccc3Cl)SC2=S)CC1,-2,0.2,-18,-6,-25,-5
COc1ccc(C2C(C(=O)c3ccco3)=C(O)C(=O)N2Cc2cccnc2)cc1OC (centres undefined),-7,0.9,2,4,6,-7
N#Cc1ccc(CN2CCN(C(=O)CC(NC(=O)c3ccccc3)c3ccccc3)CC2)cc1 (centres undefined),-4,0.5,-4,3,-1,4
Cc1ccc(NC(=O)CCNC(=O)c2ccc(Br)cc2)nc1,-11,0.5,6,-3,-8,3
COc1cccc(NC(=O)CN2C(=O)c3cccnc3Oc3ccc(Cl)cc32)c1,13,2.3&2.0,14&4,-8,2,4
CC(C)n1c(=O)c2ccccc2n1C(=O)c1ccccc1,-1,1.0,2,-2,7,.
Cc1cc(NC(=O)c2ccc3nc(-c4ccccc4)c(-c4ccccc4)nc3c2)no1,-16,0.6,-2,-2,-13,15
CC12CCC(C(=O)NCc3ccccn3)(OC1=O)C2(C)C (centres undefined),-14,0.7,-9,-5,-9,-4
O=S(=O)(N/N=C/c1ccccc1OCc1ccc(Cl)cc1)c1ccccc1,-13,3.3,23,-7,2,?
O=C(NC1CCCCC1)C(c1ccc(F)cc1)N(Cc1ccc2c(c1)OCO2)C(=O)c1cnsn1 (centres undefined),-22,-0.1,21,13,15,-26
CCN(CC1CCCN(CCc2cccc(OC)c2)C1)C(=O)C=C(C)C (centres undefined),0,0.7,8,0,8,3
Cc1ccc(C(=O)NC(=S)Nc2ccccc2C(F)(F)F)cc1,-36,-0.2,23,2,0,-4
O=C(c1cccc(Cl)c1)C1CCCN(S(=O)(=O)c2ccccc2)C1 (centres undefined),-7,2.7,69,9,32,3

Copied from the entries so far for reference:
compound,D2 PAM,TRPML1 ag,TRPML1 blocker,Six1-Eya2 inh,CtBP-E1A inh,TRPV1 potentiator
Cc1ccc(C(=O)NC(=S)Nc2ccccc2C(F)(F)F)cc1,-36,-0.2,23,2,0,-4
O=C(c1cccc(Cl)c1)C1CCCN(S(=O)(=O)c2ccccc2)C1 (centres undefined),-7,2.7,69,9,32,3

(continued)
compound,D2 PAM,TRPML1 ag,TRPML1 blocker,Six1-Eya2 inh,CtBP-E1A inh,TRPV1 potentiator
Oc1cccc(/C=N/NC(=S)NCCN2CCOCC2)c1O,-4,-0.4,-11,-69*,-94*,-13
Cc1cccc(OCC(=O)NCCCNC(=O)c2ccco2)c1,-3,0.0,17,15,0,5
COc1ccc(CCn2c(NN=C3CCCC3)nc3c2c(=O)[nH]c(=O)n3C)cc1,19,0.7,11,-4,.,6
CCCc1c(C(=O)Nc2ccc(N3CCOCC3)cc2)cnn1-c1ccccc1,-2,-0.2,-10,-6,-12,.
CCOc1ccc(CCNC(=O)COC(=O)Cn2cnc3c2c(=O)n(C)c(=O)n3C)cc1OCC,-1,-0.2,2,1,4,0
O=C(O)/C=C/c1ccc(OCc2cccc(F)c2)cc1,-10,0.6,-1,-2,20,7
Cc1sc2c(c1C)c(=O)n(-c1cccc(C(F)(F)F)c1)c(=O)n2CC(=O)NCc1ccco1,-5,-0.3,3,1,3,-13
COCc1nnc(NC(=O)CSc2ccc(C)cc2)s1,-2,-0.3,6,3,7,-12
COc1cccc(CN(C(=O)c2ccccc2Cl)C2CCS(=O)(=O)C2)c1 (centres undefined),-3,-0.8,3,0,1,-19
NC(=O)c1ccc(NC(=O)COC(=O)c2ccc(Cl)nc2)cc1,-2,2.8,-16,-5,-8,-1
N#Cc1c(N)nc2c(c1-c1ccncc1)CCCCC2,4,-0.3,-1,2,2,?
Cc1cccc(NC(=O)C(C)SCc2nc3sc(C)c(C)c3c(=O)[nH]2)n1 (centres undefined),11,-0.1,-12,2,11,?

Structures listed so far that contain two or more sulfur atoms, in the order listed:
compound,D2 PAM,TRPML1 ag,TRPML1 blocker,Six1-Eya2 inh,CtBP-E1A inh,TRPV1 potentiator
CN1CCN(NC(=O)CN2C(=O)/C(=C/c3ccccc3Cl)SC2=S)CC1,-2,0.2,-18,-6,-25,-5
COCc1nnc(NC(=O)CSc2ccc(C)cc2)s1,-2,-0.3,6,3,7,-12
Cc1cccc(NC(=O)C(C)SCc2nc3sc(C)c(C)c3c(=O)[nH]2)n1 (centres undefined),11,-0.1,-12,2,11,?

(next part)
compound,D2 PAM,TRPML1 ag,TRPML1 blocker,Six1-Eya2 inh,CtBP-E1A inh,TRPV1 potentiator
N#Cc1sc2nc(-c3cccs3)cc(-c3ccc(F)cc3)c2c1N,22,1.3,9,16,19,4
Cc1ccccc1S(=O)(=O)NC(=O)C1(C)CCN1C(=O)C1CCCCC1 (centres undefined),-3,-0.8,.,1,1,.
CC(CC(C)C(=O)N1CCOCCN(C(=O)C(C)CC(C)C(=O)O)CCOCC1)C(=O)O (centres undefined),3,1.5,0,0,6,0
O=C(Cc1ccccc1[N+](=O)[O-])NNC(=O)c1cccs1,-4,0.1,9,0,.,13
O=C(CSc1nccn1Cc1ccco1)Nc1ccccc1,1,0.9,15,-9,0,-9
COc1cccc(OCc2nc3ncc(Br)cc3[nH]2)c1,-7,1.3,31,-2,4,7
O=[N+]([O-])c1ncc(Br)cc1Nc1ccccc1,-18,-1.2,2,?,.,.
CC(=O)NS(=O)(=O)c1ccc(N2C(=O)c3ccccc3C2=O)cc1,-32,1.9,-5,8,.,4
O=C(c1ccc(Cl)cc1)C1C2C(=O)N(c3ccccc3)C(=O)C2C2CCCN21 (centres undefined),-24,-0.2,-4,-2,7,-5
COn1c2c(c3c4nonc4ccc31)CCCC2,-10,-0.3,17,6,19,3
O=C(NCc1ccc(Cl)cc1)C1CCN(C(=O)Cc2ccccc2)CC1,-25,-0.2,23,-3,-1,-25
N=Nc1c(O)n(CC(=O)Nc2ccccc2)c2ccccc12,-16,-0.2,-23,2,.,-4
Clc1ccc(-c2nnc(-c3ccc(Br)cc3)c(N3CCSCC3)n2)cc1,-6,0.4,12,-3,0,0
Cc1nn(-c2ccccc2)c(Cl)c1/C=C/C(=O)c1ccc(O)cc1,2,2.3,-4,3,-4,13
CCn1c(SCC(=O)NCc2ccc(F)cc2)nc2c(c1=O)SC(C)C2 (centres undefined),2,-0.2,2,0,4,-2
CN(Cc1ccccc1)C(=O)c1ccccc1-c1ccccc1,-15,9.8,-5,4,26,-4
Cc1c(CC(=O)N2CCC(O)CC2)c(=O)oc2cc3c(cc12)CCC1(CCCCC1)O3,-20,-0.3,-8,0,-5,.
O=C(NNc1ccccn1)C(=O)NNS(=O)(=O)c1ccc(Cl)cc1,10,-0.1,4,-85*,?,.
CC(=O)Nc1ccc(S(=O)(=O)NCC(=O)NNC(=O)c2csc(N3CCOCC3)n2)cc1,-66,-0.1,-8,0,4,2
Cc1cccc(C(=O)Nc2cccc(C(=O)N/N=C/c3ccc4c(c3)OCO4)c2)c1,-5,-0.1,-3,-20,-13,11
Cn1c(=O)c2cc(NC(=O)Cc3ccccc3F)ccc2n1C/C=C/c1ccccc1,2,-0.6,.,-16,-7,.
CCOc1ccc(S(=O)(=O)N(C)CC(=O)N2CCCC2)cc1,-7,-0.4,-5,6,-4,5
O=C(C[C@H]1C[C@H](C(=O)N2CCCCC2)[C@@]2(CCc3ccccc3)c3[nH]c4cc(-c5ccco5)ccc4c3CCN2C1=O)NCc1cccc(C(F)(F)F)c1,-15,-0.2,16,-8,-17,.
CSc1ccc(/C=N/NC(=O)c2ccc(O)cc2)cc1,-8,-0.4,-3,-15,0,12
C#CCn1ccc(O)c(Cc2ccccc2)c1=O,-4,-1.2,18,9,6,24
Cc1ccc(-n2nnnc2SCC(=O)Nc2ccc3c(c2)OCCO3)cc1C,-15,3.5,-1,-7,-7,-11
CCc1noc(C)c1C(=O)N1CCSC1=Nc1cccc(Cl)c1C,-9,1.2,12,0,8,-2
CN(C)c1ccc(/C=N/n2c(-c3ccccc3Br)n[nH]c2=S)cc1,-16,0.0,-6,-24,-3,-9
Cc1cc(NC(=O)c2ccc(Cl)cc2Cl)n(CCC#N)n1,-2,-0.4,9,0,6,-8
CSc1cnn(-c2ccccc2)c(=O)c1SC,-7,2.9,6,-1,1,2
CCCCn1c(N)c(N(CCOC)C(=O)c2c(C)noc2C)c(=O)[nH]c1=O,5,0.8,?,-4,6,9
CCN(CC)CCNC(=O)c1ccc(NC(=O)c2cc(-c3ccco3)nc3ccccc23)cc1,-32,-0.2,-4,-18,-9,?
COc1ccc(-c2ccc(NCCC3=CCCCC3)nn2)cc1OC,-5,-0.2,14,-3,-10,16
COc1c(C)cccc1C(=O)Nc1ccc(CN2CCOCC2)cc1,-19,-0.3,19,-6,-11,-10
COc1ccc(OC)c(Nc2ncnc3c2cnn3-c2ccccc2)c1,-11,1.0,0,-6,-6,-9
CC(NC(=O)c1cc([N+](=O)[O-])cc([N+](=O)[O-])c1)c1ccc(-n2ccnc2)cc1 (centres undefined),19,0.6,-12,-9,-3,-18
CCCNC(=O)c1ccccc1NC(=O)CN(c1ccccc1OCC)S(C)(=O)=O,-10,-1.2,6,-5,4,?
CCOC(=O)C1=C(N)n2c(s/c(=C/c3ccco3)c2=O)=C(C(=O)OC)C1c1ccco1 (centres undefined),3,8.4,13,?,?,-11
COC(=O)c1ccccc1N/C=C/C(=O)c1ccc(Br)cc1,-14,2.3,5,3,8,-5
